Source: PubChem
Beta cell apopt: blocks beta cell apoptosis. INS-1E cytokine-induced death, ATP luminescence, 48 h; percent of positive-control rescue, neutral wells zero. protection from apoptosis, % (test concentration not listed). 300,000 tested, 0.8% active;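 active = all replicates at 75% or more, or half of them and the mean; inconclusive = half reach 75% but not the mean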;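 also: 0% = cytokine-treated negative control wells and 100% = positive control rescue; higher means more ATP so stronger rescue from cytokine killing; wells of about 40 µL received 100 nL stock; the first replicate is given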
Beta2AR agonist: human beta-2 adrenergic receptor agonism by FAP. P07550. Am2.2-beta2AR cells, FAP receptor internalization, flow cytometry; reference of the scale not given here. response, % (concentration not given with the values). 340,000 tested, 0.43% active. AID 504454;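 active = response above a set limit, near 3 SD of response in nonfluorescent compounds, cut at about 42% in these data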;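 also: stock transfer was 100 nL into about 11 µL; a reference agonist was the positive control; negative values mostly stem from fluorescent compounds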
Target sequence (P07550 whole entry, looked up): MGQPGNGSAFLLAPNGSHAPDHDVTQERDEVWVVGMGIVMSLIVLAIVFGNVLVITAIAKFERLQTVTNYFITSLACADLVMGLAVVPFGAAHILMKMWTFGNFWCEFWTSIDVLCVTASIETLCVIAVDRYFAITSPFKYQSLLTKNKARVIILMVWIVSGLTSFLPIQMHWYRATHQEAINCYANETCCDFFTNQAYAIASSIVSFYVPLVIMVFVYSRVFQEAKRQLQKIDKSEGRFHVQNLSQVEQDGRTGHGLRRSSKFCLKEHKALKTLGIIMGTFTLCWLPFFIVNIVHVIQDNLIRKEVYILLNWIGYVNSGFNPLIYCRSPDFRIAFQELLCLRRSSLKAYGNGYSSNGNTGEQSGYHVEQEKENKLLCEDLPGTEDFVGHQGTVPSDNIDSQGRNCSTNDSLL
Calb FLC: C. albicans growth modulation with fluconazole. growth inhibition, % (test concentration not listed). 300,000 tested, 0.57% active. C. albicans CaCi-2 (fluconazole-resistant clinical isolate) + fluconazole, Alamar Blue growth, 48 h. AID 1979;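 active = most replicates above 75%; inconclusive = exactly half above 75%; inactive = most below 75%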;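 also: all wells also contain fluconazole at 8 µg/ml as a sub-toxic cotreatment; 0% = median of DMSO wells and 100% = median of geldanamycin control wells; wells of about 8 µL received 7.5 nL stock; the first replicate is given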
UCH37 inh: inhibitors of human deubiquitinating enzyme UCH37; Q9Y5K5; inhibition, % (concentration not given with the values); 330,000 tested, 0.33% active; AID 588478; purified proteasome/UCH37, Ub-AMC cleavage fluorescence;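 active = mean of two replicates above 20%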;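 also: 0% = compound-free wells with enzyme and 100% = wells lacking proteasome; stock transfer was 100 nL into about 20 µL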
Target sequence (Q9Y5K5 whole entry, looked up): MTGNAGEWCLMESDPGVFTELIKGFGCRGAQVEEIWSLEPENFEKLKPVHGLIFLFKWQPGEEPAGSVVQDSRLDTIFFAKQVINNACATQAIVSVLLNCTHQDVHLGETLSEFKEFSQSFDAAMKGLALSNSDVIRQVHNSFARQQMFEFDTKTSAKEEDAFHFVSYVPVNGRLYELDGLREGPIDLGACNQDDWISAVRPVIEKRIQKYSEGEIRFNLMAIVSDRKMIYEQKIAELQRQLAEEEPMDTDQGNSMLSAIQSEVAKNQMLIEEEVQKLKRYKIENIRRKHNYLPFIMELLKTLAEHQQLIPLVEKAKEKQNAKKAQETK
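Schedule: 30 min plus 25 min, room temperature / Material: human UCH37 within purified proteasomes / Technique: AMC fluorescence intensity at 355/460 nm / Buffer or medium: pH 7.4 Tris-HCl (50 mM) with ovalbumin, ATP-MgCl2, DTT / Controls: wells without proteasome as full block, compound-free enzyme plus substrate as uninhibited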
T cruzi repl: T. cruzi replication inhibition | T. cruzi beta-gal in NIH3T3, luminescence, 90 h | inhibition, % (no concentration beside the values) | 300,000 tested, 1.4% active;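 active = mean inhibition across valid replicates above about 55%, limit read from the data; inconclusive = mean below that limit but half or more replicates reach it; inactive = mean below it, under half of replicates reach it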;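 also: signal also drops with host cell toxicity which is not excluded here; 0% = plate median of DMSO wells and 100% = zero luminescence signal; higher percent means less beta-gal luminescence so fewer parasites; stock transfer was 50 nL into about 50 µL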
A1 inh: inhibitors of the anti-apoptotic protein A1, read as caspase activation; MEF A1-2A-BIM cells, Caspase-Glo 3/7 luminescence, 3 h; percent of clofoctol response, vehicle zero; caspase activation, % (test concentration not listed); 330,000 tested, 0.066% active; AID 2462;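 active = over half of replicate activation scores above 10%, or exactly half above 10 with the replicate mean above 10; inconclusive = replicate mean below 10 yet half the replicates above 10; inactive = over half of replicates below 10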;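 also: wells of about 30 µL received 50 nL stock; many hits fall short of the cut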
LANA-H2A inh: blocks KSHV LANA binding to histone H2A/H2B; Q9QR71; cell-free LANA-H2A/H2B peptide, fluorescence polarization; inhibition, % (no concentration beside the values); 320,000 tested, 0.6% active; in the data active = inhibition mostly above about 10%, no sharp cut-off; inactive = mostly below about 6.7%;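 also: stock transfer was 7.5 nL into about 10 µL; 0% = median of vehicle wells and 100% = median of positive control wells; one replicate is shown; the record names a cut of 25% in any replicate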
RanGTP-Impb inh: disruptors of Ran-importin-beta complex formation – biochemical, FRET, CFP-Ran, YFP-importin-beta, homogeneous, primary screen; 300,000 tested, 1.1% active; AID 2216; inhibition, % (test concentration not listed); cell-free CFP-Ran/YFP-importin-beta FRET ratio;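 active = most replicates above 15%; inconclusive = exactly half above 15%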;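 also: 0% = DMSO wells and 100% = Ran loaded with GDP instead of GTP; wells of about 40 µL received 100 nL stock; the first replicate is given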
An asterisk follows results filed as active; u = inconclusive; x = no result given. Hits appear at their usual frequency; 4.3% or so of the library scored in one or more.

smiles,Beta cell apopt,Beta2AR agonist,Calb FLC,UCH37 inh,T cruzi repl,A1 inh,LANA-H2A inh,RanGTP-Impb inh
CCOc1ccc(/C=C2\SC(=S)N(NS(=O)(=O)c3ccccc3)C2=O)cc1OC,-5,3,25,8.7,-4,0.3,2.1,-7.1
COc1ccc(SCc2noc(C(=O)NCC3CCCO3)c2C(=O)O)cc1 (configuration not stated),-12,0,0,1.6,20,-0.9,1.0,3.3
Cc1ccc(C(=O)OCC(=O)N(C)c2ccccc2)c(C)c1,2,-1,-2,4.4,6,-0.9,0.1,0.8
CCOC(=O)C1(CCOc2ccccc2)CCN(Cc2cccc3nonc23)CC1,8,-16,47,0.5,57*,0.1,-4.5,1.1
COc1ccccc1OCCCC(=O)NCc1ccco1,-9,7,-1,1.9,-8,0.1,-3.5,0.0
O=S(=O)(Cc1ccccc1)N1CCN(c2ccccc2)CC1,-9,-3,-11,1.6,7,-0.1,0.5,59*
Cc1ccc(-c2nnc(OCC3CCCO3)c3ccccc23)cc1 (configuration not stated),-1,-3,1,2.7,29,0.0,4.0,1.7
Cc1ccc(C)c(N2CN(Cc3ccco3)CNC2=S)c1,-6,0,-14,2.5,-58,0.4,-0.2,-1.5
Cc1c(-c2nc(-c3ccc(C(C)(C)C)cc3)no2)n(C)oc1=O,x,-13,-15,-1.9,3,-7.1,3.7,-4.8
O=C1NC(c2ccccc2)(C(F)(F)F)SC2=NCCCN12 (configuration not stated),-2,-3,-3,5.0,-11,-0.7,11,-1.0
CC(=O)Nc1ccc(S(=O)(=O)NC(CC(=O)NCCCN2CCOCC2)C(C)C)cc1 (configuration not stated),2,-5,1,-0.3,-9,1.0,-3.9,u
Cc1csc(NC(=O)C(CC(C)C)NS(=O)(=O)c2ccc3c(c2)oc(=O)n3C)n1 (configuration not stated),-4,-6,10,1.9,2,1.0,2.3,2.0
CN(C)C/C=C/C(O)(c1ccccc1)c1ccccc1,x,-3,1,2.1,1,0.0,2.4,-6.8
O=C(Nc1ccc2c(c1)C(=O)NC2=O)c1cccc(Cl)c1,-6,-6,-6,-55,-4,-2.5,1.7,3.5
N/C(=N\OS(=O)(=O)c1ccc2ccccc2c1)c1ccncc1,-4,1,3,5.4,0,-3.1,-0.7,-2.4
CCc1ccc(-c2nc(CN3CCC(C(=O)N4CCN(c5ccccn5)CC4)CC3)c(C)o2)cc1,1,3,x,-0.6,x,-0.8,2.9,x
CCOc1ncccc1C(=O)OCC(=O)NC1CC1,-15,-5,8,6.3,-17,-0.8,-3.5,-1.3
CN(C)CCn1c2c(c(SCC(=O)NCc3ccccc3)nc1=O)CCC2,-5,-9,4,4.7,-3,1.3,2.1,6.2
Cc1c(NC(=O)/C(C#N)=C/c2ccccc2)c(=O)n(-c2ccccc2)n1C,0,0,2,1.3,-10,-0.4,-2.9,-0.1
CC(C)NCCOc1cccc(Br)c1,0,6,x,4.9,0,1.6,1.7,2.6
CC(C)N1CC2(c3ccccc3)CN(C(C)C)CC(c3ccccc3)(C1)C2=O,-9,-5,3,0.7,-15,0.4,3.8,-0.8
Cc1ccnc(NS(=O)(=O)c2ccc(NC(=O)c3cc(-c4ccc(Br)cc4)nc4ccccc34)cc2)n1,7,-1,14,x,28,0.4,1.3,3.5
CCOc1ccc(NC(=S)NC(C)C(c2ccccc2)N2CCN(C)CC2)cc1 (configuration not stated),x,1,2,1.3,-17,0.5,-0.9,u
Nc1nc2ccccc2n1/N=C/c1ccc2c(c1)OCO2,-6,-7,u,x,-3,-3.7,-2.0,1.2
N#CC1=C(SCC(=O)Nc2ccccc2)NC(=O)CC1c1ccco1 (configuration not stated),4,2,1,2.7,-22,0.2,-0.9,5.7
Nc1nc(Br)c2c(F)cccc2c1-c1ccc(Cl)cc1,-2,11,22,-18,-3,-0.2,-2.9,0.8
CN(C)c1ccc(C(CNS(=O)(=O)c2ccc3ccccc3c2)N2CCOCC2)cc1 (configuration not stated),-6,-2,-5,0.4,10,-0.1,-3.2,1.2
Cn1c(=O)[nH]c2nnc(-c3ccc(Cl)c(Cl)c3)nc2c1=O,6,8,-10,8.4,-7,-7.6,-9.7,-3.7
COc1cccc(-c2cc3nc4c(c(N5CCC6(CC5)OCCO6)n3n2)CCC4)c1,11,13,u,-7.8,16,-0.8,3.2,1.2
O=C(CCC1CCCN(Cc2ccc3c(c2)OCCO3)C1)NCc1ccc(F)c(F)c1 (configuration not stated),-3,-5,3,0.2,62*,-0.8,2.9,0.9
CCN(CC(=O)Nc1ccc(NC(C)=O)cc1)c1ccc(C(F)(F)F)cn1,-5,-5,-1,0.5,3,-0.3,-3.2,-7.3
Cc1ccnc(NC(=O)/C=C/c2ccccc2[N+](=O)[O-])c1,-16,x,-21,3.8,10,-5.5,4.3,3.3
CC(C)CNC(=O)c1ccc(COc2ccc(Cl)cc2Cl)o1,0,-2,34,0.8,24,1.3,9.6,u
C=CCNC(=S)N1CCc2[nH]c3ccccc3c2C1,-6,-3,9,1.1,-12,-0.3,-3.0,3.4
Cc1cc(/C=C(\C#N)C(=O)NCC2CCCO2)c(C)n1-c1ccc(Cl)cc1 (configuration not stated),3,-6,-26,-2.4,22,0.7,3.8,2.0
CCC(=O)NC(=S)Nc1cccc(NC(=O)c2ccccc2)c1,4,-11,3,1.3,-6,-0.2,1.3,1.5
COc1ccc2c(c1)CCN(C(=O)CCl)C2C1C(=O)CCCC1=O (configuration not stated),-2,-5,-7,1.4,-6,0.6,0.8,8.3
CCN1CCN(Cc2ccc(NC(=O)c3cc(NC(=O)C4=NN(c5ccccc5)C(=O)C4)cc(OC)c3)cc2C(F)(F)F)CC1,-8,-1,15,0.0,-6,-0.3,-0.3,-1.0
COCCn1c(SCC(=O)NCc2ccccc2)nnc1-c1ccco1,-5,-2,5,6.0,-15,0.7,-4.2,0.9
Cc1nc(SCC(=O)Nc2ccc(Cl)cc2[N+](=O)[O-])nc(C)c1C,-1,-10,-4,-1.2,11,1.5,4.9,-3.3
CC1CCCC(C)N1/N=C/c1ccc(C#N)cc1 (configuration not stated),-3,5,-22,x,-12,-0.7,-8.5,-5.1
Cc1ccnc(NS(=O)(=O)c2ccc(-n3cccn3)cc2)c1,-4,-13,6,-3.7,-8,0.1,-3.6,2.3
COC(=O)c1ccc(COc2ccccc2/C=C(\C#N)C(=O)Nc2ccccc2C)cc1,-3,1,3,4.2,-15,-0.2,-6.2,0.3
Oc1c(C(c2ccccn2)N2CCCCC2)cc(Cl)c2cccnc12 (configuration not stated),26,26,9,2.0,20,-0.4,-2.2,2.5
C/C(N)=C(/C#N)C(=O)COC(=O)COc1ccc(Cl)cc1C,-10,-1,-9,x,-15,-0.2,0.8,-2.6
Cc1ccc(-c2cnc3cc(C)nn3c2)cc1,6,-4,4,-37,-13,-5.9,-0.1,2.1
CCOc1ccc(NS(=O)(=O)c2cc(C(=O)N3CCN(C(C)=O)CC3)ccc2Cl)cc1,4,0,-5,1.7,0,0.1,-0.7,3.6
Cc1cc(C(=O)CN2CCCC2)c(C)n1-c1ccc(Cl)cc1,-6,-2,15,0.9,15,-0.9,-0.6,2.5
O=C(NC(NC1CCS(=O)(=O)C1)C(Cl)(Cl)Cl)c1cccc(Cl)c1 (configuration not stated),-4,4,-9,3.2,-8,0.0,-2.6,2.5
Cc1cc(C)c(OCCCCN(C)Cc2ccccc2)c(C)c1,x,0,2,6.9,19,-0.5,2.8,-0.3

Carrying on.
smiles,Beta cell apopt,Beta2AR agonist,Calb FLC,UCH37 inh,T cruzi repl,A1 inh,LANA-H2A inh,RanGTP-Impb inh
CN1/C(=C\C(=O)CSc2nnc(NCc3ccccc3)s2)C(C)(C)c2ccccc21,28,1,15,-0.5,-1,-1.0,0.6,1.5
Cc1sc(NC(=O)CN2CCCC2)nc1-c1ccc2c(c1)CCN2C(=O)c1cccc(F)c1,x,1,21,9.3,24,0.7,7.1,1.3
O=C(CCn1c(=S)[nH]c2cc3c(cc2c1=O)OCO3)N1CCc2ccccc2C1,0,x,12,5.2,1,-0.6,4.0,0.2
CCN(CC)CCCN=Cc1c(-c2ccccc2)[nH]n(-c2nc3ccccc3s2)c1=O,2,-4,-2,7.3,1,-1.9,-1.1,-4.6
CCN1C(=O)[C@H]2[C@@H](c3ccc(-c4ccc5c(c4)OCO5)cc3)N[C@@](Cc3ccccc3)(C(=O)OC)[C@H]2C1=O,-2,-6,x,2.4,x,-0.2,-0.4,x
Cc1nn(-c2ccc(Cl)cc2)c(=O)c2ccccc12,-1,0,30,1.1,-4,-0.4,4.5,-1.5
COc1cc(NC(=O)C(c2ccccc2)c2ccccc2)c(C(=O)O)cc1OC,-3,6,60,6.0,-32,-0.2,1.1,3.4
CC1(C)CC(=O)C2=C(C1)Nc1cc(Cl)ccc1S2,1,5,1,1.1,-19,1.0,-4.9,-4.1
COc1ccc(N(C(=O)c2ccco2)C(C(=O)NC2CCCC2)c2cccs2)cc1 (configuration not stated),7,-4,-28,3.2,10,-0.4,0.5,3.1
COC(=O)Cc1c[nH]c2cccc(OCC(O)CN(Cc3ccc([N+](=O)[O-])cc3)C(C)(C)C)c12 (configuration not stated),x,2,-4,-1.0,65*,0.4,0.7,-1.3
O=C(N/N=C/c1ccc(C(=O)O)cc1)C1=NNC(c2ccccc2)(c2ccccc2)C1,5,-2,6,x,0,-0.2,-6.5,u
